# Bioassay records as filed in PubChem BioAssay.
# Calb FLC = C. albicans growth modulation with fluconazole; growth inhibition, % (concentration not given with the values); 300,000 tested, 0.57% active; AID 1979; C. albicans CaCi-2 (fluconazole-resistant clinical isolate) + fluconazole, Alamar Blue growth, 48 h;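 active = most replicates above 75%; inconclusive = exactly half above 75%; inactive = most below 75%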;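 also: all wells also contain fluconazole at 8 µg/ml as a sub-toxic cotreatment; 0% = median of DMSO wells and 100% = median of geldanamycin control wells; wells of about 8 µL received 7.5 nL stock; the first replicate is given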
# T cruzi inh = T. cruzi replication inhibition; T. cruzi beta-gal in NIH3T3, luminescence, 90 h; inhibition, % (test concentration not listed); 300,000 tested, 1.4% active;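 active = mean inhibition across valid replicates above about 55%, limit read from the data; inconclusive = mean below that limit but half or more replicates reach it; inactive = mean below it, under half of replicates reach it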;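 also: signal also drops with host cell toxicity which is not excluded here; 0% = plate median of DMSO wells and 100% = zero luminescence signal; higher percent means less beta-gal luminescence so fewer parasites; stock transfer was 50 nL into about 50 µL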
# ALR inh = human ALR oxidase inhibition via reduced H2O2 | purified ALR, DTT oxidation, H2O2 HRP-luminol luminescence | 290,000 tested, 3.8% active | AID 485317 | inhibition, % (concentration not given with the values);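 active = mean and each replicate at 75% or more; inconclusive = only one of the two met; inactive = neither met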;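 also: stock transfer was 7.5 nL into about 7.5 µL; 0% = neutral wells and 100% = wells with inactivated enzyme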
# Target sequence (P55789 whole entry, looked up): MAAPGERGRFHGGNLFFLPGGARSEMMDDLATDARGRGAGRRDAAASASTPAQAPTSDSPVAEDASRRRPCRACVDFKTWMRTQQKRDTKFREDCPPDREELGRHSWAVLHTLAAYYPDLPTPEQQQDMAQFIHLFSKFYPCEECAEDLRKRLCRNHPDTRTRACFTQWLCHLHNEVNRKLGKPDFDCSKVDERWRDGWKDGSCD
# Beta apoptosis = blocks beta cell apoptosis. INS-1E cytokine-induced death, ATP luminescence, 48 h; percent of positive-control rescue, neutral wells zero. 300,000 tested, 0.8% active. AID 435005. protection from apoptosis, % (test concentration not listed);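 active = all replicates at 75% or more, or half of them and the mean; inconclusive = half reach 75% but not the mean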;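 also: 0% = cytokine-treated negative control wells and 100% = positive control rescue; higher means more ATP so stronger rescue from cytokine killing; wells of about 40 µL received 100 nL stock; the first replicate is given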
# Ecoli rRNA inh = inhibits bacterial ribosomal RNA function over humanized ribosomes. E. coli WT GFP vs humanized-ribosome RFP mutants, fluorescence, 24 h; hits give low values; DMSO median 0, no signal -100. GFP signal change (wild-type ribosome), % (test concentration not listed). 350,000 tested, 1.6% active. AID 720706;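 active = significant combined selectivity score with lowered wild-type GFP, culture density cut under 30%, mutant RFP and density less affected; inactive = any of these conditions unmet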; also: one replicate is shown; some compounds called inactive have numbers as strong as hits
# Beta2AR agonist = activates human beta-2 adrenergic receptor causing internalization; AID 504454; P07550; Am2.2-beta2AR cells, FAP receptor internalization, flow cytometry; reference of the scale not given here; 340,000 tested, 0.43% active; response, % (test concentration not listed);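 active = response above a set limit, near 3 SD of response in nonfluorescent compounds, cut at about 42% in these data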;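 also: stock transfer was 100 nL into about 11 µL; a reference agonist was the positive control; negative values mostly stem from fluorescent compounds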
# Target sequence (P07550 whole entry, looked up): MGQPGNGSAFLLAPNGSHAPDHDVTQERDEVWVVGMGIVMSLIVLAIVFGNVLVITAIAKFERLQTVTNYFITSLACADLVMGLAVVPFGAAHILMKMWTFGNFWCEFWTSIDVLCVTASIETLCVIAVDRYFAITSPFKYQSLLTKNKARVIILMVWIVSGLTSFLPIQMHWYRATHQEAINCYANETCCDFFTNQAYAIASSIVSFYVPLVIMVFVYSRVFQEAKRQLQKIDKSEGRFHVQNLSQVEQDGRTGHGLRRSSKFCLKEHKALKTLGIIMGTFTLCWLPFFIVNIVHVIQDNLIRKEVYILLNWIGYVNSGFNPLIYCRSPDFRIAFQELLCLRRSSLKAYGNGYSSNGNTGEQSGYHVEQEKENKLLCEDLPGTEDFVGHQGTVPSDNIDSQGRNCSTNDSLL
# Bfl-1 A1 inh = inhibitors of the anti-apoptotic protein A1, read as caspase activation; 330,000 tested, 0.066% active; MEF A1-2A-BIM cells, Caspase-Glo 3/7 luminescence, 3 h; percent of clofoctol response, vehicle zero; caspase activation, % (concentration not given with the values);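 active = over half of replicate activation scores above 10%, or exactly half above 10 with the replicate mean above 10; inconclusive = replicate mean below 10 yet half the replicates above 10; inactive = over half of replicates below 10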;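 also: wells of about 30 µL received 50 nL stock; many hits fall short of the cut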
# LANA-H2A inh = blocks KSHV LANA binding to histone H2A/H2B; 320,000 tested, 0.6% active; AID 2629; inhibition, % (no concentration beside the values); cell-free LANA-H2A/H2B peptide, fluorescence polarization; Q9QR71; in the data active = inhibition mostly above about 10%, no sharp cut-off; inactive = mostly below about 6.7%;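 also: stock transfer was 7.5 nL into about 10 µL; 0% = median of vehicle wells and 100% = median of positive control wells; one replicate is shown; the record names a cut of 25% in any replicate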
# Ecoli rRNA inh OD600 = further read-out of Ecoli rRNA inh, marked with its call; OD600 change, %; measured here: OD600 growth;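 optical density of the mix in the first replicate; 0 = DMSO median and -100 = no signal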
# Ecoli rRNA inh RFP = recorded beside Ecoli rRNA inh, whose call it bears; RFP signal change, %; measured here: RFP humanized mutant strains;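 first replicate; 0 = DMSO median and -100 = no signal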
# * = called active by the depositor; i = inactive; ? = inconclusive; · = not tested or not shown.
SMILES,Calb FLC,T cruzi inh,ALR inh,Beta apoptosis,Ecoli rRNA inh,Ecoli rRNA inh OD600,Ecoli rRNA inh RFP,Beta2AR agonist,Bfl-1 A1 inh,LANA-H2A inh
O=C(NC1CCCCC1)c1ccccc1NC(=O)C1CC(=O)N(c2ccc(Cl)cc2)C1 (stereo not drawn),11.6,4.1,-2.2,4.0,·,·,·,-2.1,0.6,4.1
CC(C)(C)c1ccc(-c2nnc(SCC(=O)NC3CC3)o2)cc1,·,·,-11.6,-3.7,-10.8,-27.6,-5.9,-4.6,-0.7,6.3
CCOC(=O)c1cnc2ccc(OC)cc2c1Nc1ccc(N2CCN(C)CC2)cc1,-9.3,39.2,99.3*,2.8,-9.8,-14.8,-1.0,16.6,0.1,-4.2
COc1cc(NC(=O)C2CCCN2C(=O)C2CCC(C)CC2)cc(OC)c1OC (stereo not drawn),-7.1,2.6,-23.7,0.4,4.4,4.0,0.2,-0.6,-0.4,-4.0
c1ccc(-c2noc(CC3CCCCC3)n2)nc1,-12.2,-15.6,3.1,2.0,-14.4,-9.8,4.8,-15.3,-3.5,-4.8
Cc1cc(Cl)ccc1OCC(=O)Nc1ccccc1N1CCOCC1,1.6,24.8,-17.2,9.7,·,·,·,-12.7,-0.7,7.7
O=C(Cc1ccccc1)NNC(=O)c1cccs1,-1.1,13.4,-0.4,-1.9,·,·,·,4.5,-0.9,3.3
COc1cc(-c2cc(C(=O)Nc3ccncc3)c3ccccc3n2)cc(OC)c1OC,·,·,-5.2,18.9,-15.2,-24.2,4.7,14.3,-1.9,1.3
COc1ccccc1NC(=O)Nc1ccccc1Br,17.3,6.4,-13.7,4.4,-5.7,-3.7,-1.8,7.8,0.2,-1.7
CCC(OC(=O)CNS(=O)(=O)c1ccccc1)C(=O)c1ccccc1 (stereo not drawn),-3.2,-11.1,-6.4,-9.3,7.1,6.1,2.9,9.2,-0.5,-1.3
Cc1ccc(CNC(=O)COC(=O)c2cc(=O)[nH]c3ccccc23)cc1,·,·,-12.0,-1.3,10.8,19.1,0.1,3.6,-0.8,4.1
COCc1c(C(=O)NCc2ccccc2CN2CCCC2)oc2ccccc12,·,·,9.7,-0.6,5.1,2.1,0.4,1.1,-0.5,1.6
C/C(Cc1ccccc1)=N\NC(=O)CNC(=O)c1ccc2c(c1)OCCO2,-12.9,13.2,5.3,-1.9,1.5,-15.3,0.4,-69.0,1.6,2.3
Cc1ccc(OP(=O)(Nc2c(C)n(C)n(-c3ccccc3)c2=O)Oc2ccc(C)cc2)cc1,3.9,-0.7,7.9,3.0,-5.5,-11.8,-1.5,-2.8,0.6,1.0
CC1(C)C(=O)OC(c2c(F)c(F)c(F)c(F)c2F)C2(CCCCC2)C1=O (stereo not drawn),6.5,-5.3,-1.1,0.7,·,·,·,15.9,0.0,-3.5
O=C(O)CSc1nnc(Cn2nnc3ccccc32)n1CCc1ccccc1,-7.2,-11.5,-10.0,1.8,·,·,·,-8.5,0.7,-2.0
CC(C)OC(=O)c1ccc(NC(=O)Cn2c(-c3nonc3N)nc3ccccc32)cc1,3.2,5.4,-4.2,1.6,·,·,·,-1.8,0.1,1.3
CCCCNC(=S)NNC(=O)c1csc2ccccc12,-0.5,-21.5,25.5,4.7,-20.1,-11.4,-1.9,-9.6,0.6,-0.9
COCC(C)n1c(C)cc(C(=O)CN2c3cccc4cccc(c34)S2(=O)=O)c1C (stereo not drawn),·,·,-0.2,-7.5,·,·,·,4.8,0.2,i
O=C(c1cnn(-c2ccccc2)c1)c1ccc2ccccc2c1O,-6.9,-13.8,-13.3,-2.6,·,·,·,5.8,-6.7,1.4
COCCN1C(=O)N[C@@H](c2ccco2)C(C(C)=O)=C1C,11.1,-11.2,-0.4,2.4,11.1,18.4,18.6,0.3,0.6,-7.8
COc1cc(S(=O)(=O)N2CCCCC2)ccc1NC(C)=O,0.8,-2.8,4.3,-5.8,·,·,·,3.1,-0.4,2.9
Cc1ccccc1C(=O)NC1CCN(CC(=O)NCc2cccs2)CC1,-18.9,0.4,5.9,-0.6,-1.4,11.5,6.2,-4.6,0.4,1.7
Cc1noc(C)c1S(=O)(=O)Nc1ccc(C(=O)NC2CCCCCC2)cc1,10.2,0.8,35.3,-6.1,·,·,·,-0.6,-0.3,0.4
CCSc1nnc(NC(=O)C(C)(C(F)(F)F)C(F)(F)F)s1,-29.2,-12.3,-5.2,36.7,·,·,·,6.9,0.4,-8.7
CC(=O)Nc1ccc(S(=O)(=O)N(C)c2ccc(OCCOc3cccc(C)c3)cc2)cc1,·,·,-16.3,4.3,-3.1,-0.2,-1.8,-4.9,0.1,-0.6
COc1ccc(-n2c(SCC(=O)c3ccc[nH]3)nnc2-c2ccccc2)cc1,-2.1,6.6,-0.1,-4.7,·,·,·,7.5,0.1,-1.8
CC(C)(C)OC(=O)CN1c2cccc3cccc(c23)S1(=O)=O,-0.3,0.4,-27.2,-1.2,-44.5,-51.6,-7.6,-2.9,-0.9,-4.9
Cc1ccc(S(=O)(=O)NCC(c2cccnc2)N2CCc3ccccc32)cc1 (stereo not drawn),13.9,49.5,25.0,-7.0,-5.2,-38.9,-7.4,-1.1,0.4,-2.4
C=CCn1cnc2c(nnn2-c2ccc(Cl)cc2)c1=O,-7.6,-11.8,-11.7,-1.5,-14.7,-0.4,-0.2,2.5,-0.2,-1.1
CNCC(O)C(O)C(O)C(O)CO (stereo not drawn),1.0,-6.9,-2.3,-7.6,·,·,·,-1.9,0.0,-1.8
Cn1cnc(S(=O)(=O)N2CCN(C(c3ccccc3)c3ccccc3)CC2)c1,-2.7,7.7,-4.3,0.8,-3.4,-15.9,1.6,2.7,0.0,10.2
O=C(Cn1ncc(Cl)c(Cl)c1=O)c1ccc2c(c1)OCCO2,·,·,7.5,112.6*,-41.7,-54.9,5.8,13.3,-3.3,-2.5
O=C(NCc1ccccc1)NC1(C(=O)N2CCOCC2)CCCCC1,2.2,-3.2,-3.6,-2.3,·,·,·,7.8,-1.4,1.2
N#Cc1nc(-c2ccccc2F)oc1N1CCCC1,1.3,-17.5,-4.6,0.2,·,·,·,-9.2,0.6,1.7
O=C(COC(=O)c1cccnc1Cl)Nc1cccc(S(=O)(=O)N2CCOCC2)c1,·,·,-1.4,4.0,-0.6,3.6,4.4,10.6,1.1,1.2
O=[N+]([O-])c1ccc(CSc2ncnc3ccccc23)cc1,4.1,-19.2,98.6*,0.6,-0.1,-1.1,1.0,-4.7,0.6,-0.9
CSc1nccc(N/N=C/c2ccccc2)n1,2.3,-19.4,-1.8,-7.3,4.5,10.5,0.6,-9.8,-7.3,-2.1
COC(=O)c1ccc(CSc2nccn2C)cc1,-14.9,-9.4,·,-5.9,·,·,·,9.6,-1.2,-2.2
Cc1cccc(NC(=S)NCCc2ccc(S(N)(=O)=O)cc2)c1C,-14.8,4.3,-19.6,1.7,0.9,-6.4,-0.9,0.8,-1.7,1.9
O=C(Nc1ccc(S(=O)(=O)N2CCOCC2)cc1)c1ccc([N+](=O)[O-])cc1Cl,-27.5,72.7*,-87.9,3.7,-4.7,3.7,-5.3,4.5,-0.1,10.5
O=C(COc1ccc2c3c(c(=O)oc2c1)CCC3)NC1CCCCC1,13.6,-4.9,-9.9,8.1,5.0,3.9,-2.1,-9.0,0.0,10.7
COc1ccc(NC(=O)CCCCCN2C(=O)c3ccccc3C2=O)c(OC)c1,-1.5,8.9,-6.9,3.2,10.8,3.0,0.3,-7.8,0.7,-13.2
N#C/C(=C\c1cc(Cl)cc(Cl)c1O)C(=O)NC1CCCCC1,4.5,-1.8,6.0,-1.3,-28.6,-23.5,-4.0,3.1,0.2,2.3
CC(C)C(NC(=O)c1ccc(C(C)(C)C)cc1)C(=O)NCC(c1ccccc1)N(C)C (stereo not drawn),-5.2,-10.4,-11.3,2.2,-5.5,-9.7,8.5,-0.9,0.2,-1.5
COc1ccc2[nH]c(C(=O)O)c(CCNC(C)=O)c2c1,1.3,-13.6,·,-0.5,·,·,·,2.0,0.2,3.2
COc1cc2c3c(c1)C1(C(=O)N3C(C)(C)C=C2C)C(C#N)=C(N)Oc2cc(O)ccc21 (stereo not drawn),12.0,36.4,-18.0,-3.5,·,·,·,3.6,-0.4,-3.3
CCc1ccccc1-n1c(SCC(=O)N2CCCC2)nnc1-c1ccccn1,5.9,-3.4,14.5,1.5,·,·,·,-12.9,-0.4,1.0
Cc1cc(C)n(/N=C/c2cc(Cl)cc(Cl)c2O)c(=O)c1,-20.7,4.6,12.8,-12.2,19.5,9.8,2.3,7.4,2.0,-1.5
COc1ccc(N(CC(=O)N2CCN(Cc3ccc4c(c3)OCO4)CC2)S(=O)(=O)c2ccc(F)cc2)cc1,-28.3,42.5,-0.1,-8.4,-14.6,-17.5,25.0,-9.2,0.3,-3.8
COc1ccc(CCNC(=O)c2cc(S(=O)(=O)N3CCCC3)cn2C)cc1OC,-3.1,-7.3,-1.5,-2.6,4.8,2.9,-2.0,-3.8,-0.5,-0.8
CCC(=O)Nc1cccc(-c2nnc(-c3cccc(NC(=O)CC)c3)o2)c1,-1.0,12.8,-2.5,13.2,-6.9,-7.5,0.2,12.5,-0.2,7.1
C1=CCC(CN2CCN(C3CCCCCC3)CC2)CC1 (stereo not drawn),-19.1,34.3,-4.5,1.6,-4.5,-0.4,-2.6,-11.3,0.7,-2.4
COc1ccc(CN(C)C(=O)c2[nH]c(C)c(C(C)=O)c2C)cc1F,10.4,-4.2,0.2,-5.2,0.8,-0.3,2.5,3.4,0.1,-1.0
CCOc1ccc(-n2c(C)c(C(=O)OC)c3cc(O)ccc32)cc1,16.3,9.0,-10.7,9.7,-9.1,-4.8,-4.2,2.4,0.3,4.3
CC(=O)c1ccc(OCCCC(=O)Nc2cccc(-c3nn[nH]n3)c2)cc1,0.5,-7.5,2.8,-4.0,9.7,7.6,-2.1,9.9,-0.4,-0.8
Cc1cc(C)nc(NS(=O)(=O)c2ccc(NC(=O)c3nn(-c4ccccc4)ccc3=O)cc2)n1,?,-14.9,·,-1.9,4.2,16.2,1.6,-0.6,-1.1,-2.5
CCN(c1ccccc1)S(=O)(=O)c1ccc(Cl)c(C(=O)O)c1,-3.3,-7.3,66.5,-6.5,12.3,3.2,-1.8,3.5,0.5,-6.7
O=C(C[C@@H]1C/C=C\CCCC(=O)OC[C@@H]2CCCN2C1=O)NCCO,·,·,3.0,3.9,8.2,11.3,2.5,-0.9,0.1,0.9
CCOC(=O)N1CCN(Cc2ccccc2Cl)CC1,·,·,-3.6,-3.6,·,·,·,2.4,-1.3,1.5
CC1Sc2ccc(S(=O)(=O)CCC(=O)Nc3ccccc3Cl)cc2NC1=O (stereo not drawn),1.2,-0.6,0.9,0.0,4.2,4.2,2.0,2.9,0.8,-5.7

# An excerpt; count on the stated rates, not on these rows.
